TRPML1 inh – blocks the human TRPML1 channel; AID 624415; hit rate 0.02% among 390,000; activity change, negative = inhibition, % (concentration not given with the values); TRPML1-inducible cells, Ca2+ dye fluorescence, FDSS; hits give low values; inhibition of EC80 agonist-evoked calcium signal; Q9GZU1; in the data active means activity change below about -50%; inconclusive means about -30% to -50%; inactive means above about -30%;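 note: stimulus is agonist 54-4 at its EC80 concentration; % is set by controls: 0 for no effect and ±100 for the full control effect; compound concentration not given in the record; the text of the record puts the active cut at -80%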
Target sequence (Q9GZU1 whole entry, looked up): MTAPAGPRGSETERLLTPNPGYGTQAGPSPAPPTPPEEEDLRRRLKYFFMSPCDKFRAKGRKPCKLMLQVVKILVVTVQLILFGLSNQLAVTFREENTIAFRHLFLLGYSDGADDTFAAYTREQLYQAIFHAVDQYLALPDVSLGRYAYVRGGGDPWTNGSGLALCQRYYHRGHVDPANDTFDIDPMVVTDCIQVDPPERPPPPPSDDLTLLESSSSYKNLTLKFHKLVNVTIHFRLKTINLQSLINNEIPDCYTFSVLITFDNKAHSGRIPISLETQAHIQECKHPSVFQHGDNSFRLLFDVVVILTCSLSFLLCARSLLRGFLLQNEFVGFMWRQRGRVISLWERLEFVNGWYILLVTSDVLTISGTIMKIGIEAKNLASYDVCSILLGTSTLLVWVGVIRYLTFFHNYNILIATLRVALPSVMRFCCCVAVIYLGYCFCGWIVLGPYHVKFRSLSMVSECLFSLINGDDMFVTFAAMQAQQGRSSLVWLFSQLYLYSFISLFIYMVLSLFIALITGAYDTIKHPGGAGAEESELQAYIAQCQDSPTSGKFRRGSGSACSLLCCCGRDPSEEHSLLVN
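TRPML1-DL cells, Tet-induced overnight (~16 h, 37 °C) at 1,500 cells/well, were loaded with Ca8 no-wash dye plus quencher for 45-90 min at room temperature. Compounds were pinned during FDSS kinetic reading; agonist 54-4 at EC80 (4 uM final) then added.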
gsp ag – agonists of gsp mutant (McCune-Albright syndrome). gsp mutant cells, cAMP HTRF, 30 min; control for the full effect not named in the record. Potency, µM (series often up to 76.9 µM), for inactives: at the highest dose activation (cAMP increase), hits mostly activators. hit rate 0.13% among 340,000; active = well fitted activation curve with a large enough effect; inconclusive = small, poorly fitted or top-dose-only effect, or another doubt; inactive = no such curve, though single readings can be large or run the other way; cell line not stated here;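 note: phosphodiesterase inhibitor Ro 20-1724 added with compounds to block cAMP breakdown; potency is the fitted concentration of half-maximal effect; nearly all actives have a fitted effect of over 60% in size; about a fifth of the inactives were tested at one dose only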
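Cells stably selected in G418 were plated at 2000/well, grown 16-24 hr, then given compounds in DMSO with the PDE inhibitor […] (300 uM solution added) for 30 min at 37C; cAMP was read by HTRF.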
gsp antag – antagonists of gsp mutant (McCune-Albright syndrome); gsp-mutant cells, cAMP HTRF, 30 min; control for the full effect not named in the record; Potency, µM (highest dose often 76.9 µM), for the others: top-dose activity change, negative = inhibition, actives largely listed as inhibitors; hit rate 0.4% among 340,000; active = falling curve of any shape with a large fitted effect; inconclusive = falling curve, mostly with a smaller effect; inactive = flat or rising curve; cell line not stated here;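 note: intracellular cAMP measured with PDE inhibitor Ro 20-1724 present during compound exposure; potency is the fitted concentration of half-maximal effect; % is set by controls: 0 for no effect and ±100 for the full control effect; nearly all actives have a fitted effect of over 65% in size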
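Cells, 2000/well, grown 16–24 h in DMEM 10% FBS with 0.5 mg/ml G418, then compounds plus […] (300 uM addition stock), 30 min at 37C. cAMP read by HTRF (cAMP-d2 and anti-cAMP antibody-K in lysis buffer) after 30 min RT.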
ClpP mod – qHTS Assay for Activators of ClpP; purified B. subtilis ClpP, FRET peptide cleavage, 20 min; hit rate 1.9% among 340,000; ATP-dependent Clp protease proteolytic subunit (Bacillus subtilis (strain 168)), P80244; Potency, µM (series often up to 57.5 µM), without a hit: at the highest dose activity change, negative = active; active = well fitted falling curve with a large enough effect; inconclusive = small, poorly fitted or top-dose-only effect; inactive = no such curve, though single readings can be large or run the other way; note: potency is the fitted concentration of half-maximal effect; the source files actives as falling curves though it sought activators and does not explain the sign; nearly all actives have a fitted effect of over 65% in size; many hits overshoot -100%
Target sequence (P80244 whole entry, looked up): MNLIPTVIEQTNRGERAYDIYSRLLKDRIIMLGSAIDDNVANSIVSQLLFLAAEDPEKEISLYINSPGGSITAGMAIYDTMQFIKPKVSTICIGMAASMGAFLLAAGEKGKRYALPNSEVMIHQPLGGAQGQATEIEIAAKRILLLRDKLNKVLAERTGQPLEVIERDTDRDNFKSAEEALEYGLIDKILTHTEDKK
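ClpP 10 microg/mL final, pH 8 Tris/KCl buffer with BSA, glycerol, Tween-20; compound pinned in; FRET-FV substrate; RT 20 min; Ex320/Em430; ΔFRET vs ADEP 5.8 microM, DMSO, no enzyme.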
Menin-MLL FL inh – inhibitors of human menin-MLL interaction, wild-type MLL peptide; AID 1766; 290,000 tested, under 10 active; Fluorescence polarization, fluorescein-MLL peptide displacement from menin; FP activity change, % at 61.4 µM; inconclusive = falling polarisation curve, or a change in total fluorescence; inactive = total fluorescence flat and polarisation flat or rising; no compound was filed as active; the % refers to the polarisation; negative = inhibition;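 note: % of control where 0% means no effect; inhibitors lower the polarisation; unlabelled MLL peptide was the positive control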
TRPML1 ag – human mucolipin-1 channel agonism | Q9GZU1 | TRPML1-expressing cells, Ca2+ dye fluorescence, FDSS; host cell line not named in the record; reference of the full effect not given here | activation, % (concentration not given with the values) | hit rate 0.12% among 410,000; in the data active = activation above about 50%; inconclusive = about 30% to 50%; inactive = below about 30%; note: 0% is about no effect; the text of the record puts the active cut at 80%
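Kinetic FDSS Ca2+ read in Tet-induced TRPML1-DL cells (ABD Ca8 dye plus quencher, 45-90 min RT loading): baseline, then compound, then 110 s agonist window; EC80 agonist 54-4 at 4uM final added afterwards for a 110 s antagonist window.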
Numbers without * were called inactive; u = inconclusive; x = no result given; [ ] = remark or other dose.

Molecule	TRPML1 inh	gsp ag	gsp antag	ClpP mod	Menin-MLL FL inh	TRPML1 ag
O=C(Nc1ccc2[nH]ncc2c1)c1ccccc1Cl	13	-16%	5%	x	2.1	-0.1
Nc1nc(N)c(Cc2ccc(Cl)cc2Cl)c(N)n1	-14	-3%	1%	x	-1.1	0.7
CC(C)c1ccc(-c2nnc(SCC(=O)NC3CC3)n2C)cc1	-6	-8%	0%	-1.9%	x	0.3
COc1ccc(-c2cc(C(F)(F)F)c3c(N)c(C(=O)NCCSC)sc3n2)cc1	-8	27%	2%	x	u	13
Fc1cccc(Nc2nc3ccccc3n3cnnc23)c1	x	u	1%	3.7%	0.0	x
Oc1ccc(N=Nc2ccc3c(c2)OCCO3)c(O)c1	x	27%	0%	0.5%	17	x
CCN(CC)c1ccc(/C=c2\sc3nnc(-c4ccccc4Cl)n3c2=O)cc1	-20	20%[15.4 µM]	10%	-6.2%	u	14
CCC(=O)c1ccc(OCC(=O)Nc2ccc3nc(C)sc3c2)cc1	-6	8%	-1%	-2.3%	7.1	0.7
Cc1ccc(-n2c3c(c(=O)[nH]c2=O)C(NC(=O)C(C)(C)C)(C(F)(F)F)C(=O)N3)cc1 (configuration not stated)	10	x	x	-0.4%	x	-0.1
O=C(Nc1ccc(S(=O)(=O)Nc2nccs2)cc1)c1ccc(=O)[nH]c1	7	7%[15.4 µM]	4%	x	u	3.2
CCc1c(C)nc2ncnn2c1N1CCCC(C(=O)NCCc2ccccc2)C1 (configuration not stated)	5	u	4%	0.0%	3.3	2.5
CCCc1[nH][nH]c(=O)c1C(c1ccc(Br)cc1)C(C#N)C#N (configuration not stated)	-10	1%	-16%	0.5%	7.8	-0.3
Cn1c(N)c(S(=O)(=O)c2ccc(Br)cc2)c2nc3ccccc3nc21	-16	-8%	1%	14µM*	5.3	-0.5
CCN(CC(=O)Nc1ccccc1C(F)(F)F)C(=O)c1ccc2[nH]c3c(c2c1)CC(C)CC3 (configuration not stated)	4	2%	-5%	-7.9%	x	1.5
CCCC(=O)NC(c1ccccc1Cl)c1ccc2cccnc2c1O (configuration not stated)	10	14%	-6%	x	x	1.3
O=C(NCc1cccnc1)C1CC(c2ccccc2O)=NO1 (configuration not stated)	-6	10%[15.4 µM]	4%	-1.3%	3.1	0.3
NC1=NN(c2c(Cl)cc(Cl)cc2Cl)C(=O)C1	-6	3%	-5%	0.9%	x	0.2
O=S(=O)(c1ccccc1)c1nc(-c2ccccc2)oc1NCc1cccnc1	2	9%	-19%	-3.4%	5.1	1.0
Cc1cc(=O)n2c(-c3ccc(Cl)cc3)csc2n1	11	-5%[15.4 µM]	8%	x	0.9	0.7
N#CC(c1ccccc1)C(CC(=O)c1ccccc1)c1ccccc1 (configuration not stated)	4	u	x	0.0%	x	0.4
O=C(COC(=O)c1ccccn1)Nc1ccc2c(c1)OCO2	3	5%	5%	1.2%	2.1	0.8
COc1ccc(-n2ccnc(NCCc3ccc(S(N)(=O)=O)cc3)c2=O)cc1Cl	-6	x	x	-12%	x	0.1
N#Cc1c(NC(=O)CCC(=O)O)sc2c1CCCC2	-6	17%	0%	-1.9%	0.6	-0.5
O=C(O)c1ccc(N2C(=O)CC(N3CCN(c4ccc(Cl)cc4)CC3)C2=O)cc1 (configuration not stated)	-4	-8%	4%	0.8%	-1.9	0.2
CC(=O)Nc1cccc(N)c1	-4	x	6%	-9.0%	x	-0.3
CCCCN1C(=S)SC(C)(C)C1/[N+]([O-])=C/c1ccc(S(=O)(=O)NC)cc1 (configuration not stated)	2	10%[15.4 µM]	-9%	x	-1.1	2.0
OC1CCCN(CC(O)COC(c2ccccc2)c2ccccc2)C1 (configuration not stated)	-6	-6%[15.4 µM]	13%	x	-0.1	0.2
COc1ccc(C2(N3CCN(c4cccc(C)c4C)CC3)C(=O)c3ccccc3C2=O)cc1	6	x	x	0.9%	x	-0.3
Cc1nc(C)c(Oc2ccc(Cl)cc2Cl)c(=O)[nH]1	-4	3%[15.4 µM]	-5%	1.0%	4.9	-0.8
O=C(Nc1ccc2c(c1)OCO2)C(c1ccc(Cl)cc1)N1CCC2(CC1)OCCO2 (configuration not stated)	12	-54%[inhibitor]	-8%	1.1%	-3.8	-0.7
Cc1ccc(N=C2NC(=O)S/C2=C\c2ccco2)cc1	-2	u	-2%	0.9%	u	1.9
COC(=O)c1ccc(N2CCN(S(=O)(=O)c3ccc(Br)cc3)CC2)c([N+](=O)[O-])c1	-12	5%	-21%	-4.5%	4.7	0.6
CC(C)CC(C(=O)NCCc1ccccc1)N1Cc2ccccc2C1=O (configuration not stated)	1	x	x	-4.1%	x	1.8
COc1ccc(-c2nc(=S)[nH][nH]2)cc1	10	0%	-3%	-4.0%	-0.7	0.2
O=C1N[C@@H](Cc2ccccc2)C(=O)N2CCC[C@@H]12	5	-2%[15.4 µM]	3%	-20%	0.3	0.0
COc1ccc2[nH]c(=O)c(CN(CCCN(C)C)C(=O)Nc3ccc(F)cc3)cc2c1	1	-4%	-2%	u	2.1	-0.5
CCOc1ccc(N=Nc2ccc(O)c3ncccc23)cc1	u	-25%	13%	x	1.9	0.5
O=C(Nc1ccc(NC(=O)C2CC2)nc1)c1cccnc1	32	-2%	13%	-0.4%	6.5	-0.5
CCOC(=O)CCCNC(=O)COC(=O)c1cc(Br)c(Br)s1	-7	34%	5%	1.3%	-0.4	0.8
O=C(O)c1ccccc1/C=N/n1c(C2CCCCC2)n[nH]c1=S	-10	-11%[15.4 µM]	3%	0.3%	2.3	-0.7
Cc1cc(Br)ccc1S(=O)(=O)n1ccnc1C	14	3%	4%	x	-7.3	-0.2
O=C(CCC(=O)c1ccc(Br)cc1)Nc1ccc(F)cc1	-10	-2%	13%	x	2.0	-0.2
COc1ccc(C)cc1NC(=O)CCNC(=O)c1ccco1	9	-7%[15.4 µM]	7%	x	x	0.3
Cc1ccc(S(=O)(=O)N2CCC(=O)N(CCOC(=O)Nc3cccc(Cl)c3)CC2)cc1	12	-11%	-12%	-1.9%	0.8	0.3
O=C(c1ccc(-c2ccccc2)cc1)N1CCN(c2ccccc2F)CC1	-5	-31%[inhibitor]	-10%	-1.0%	0.9	1.1
Cc1cccc(/C=C/c2onc(C)c2S(=O)(=O)N2CCC(C(=O)NC(C)(C)C)CC2)c1	16	18%	-17%	244%	-1.9	0.8
COC(=O)c1[nH]c2cccc(OC)c2c1NC(=O)CN(C)CC1OCCO1	-15	u	-2%	32µM*	6.2	0.0
COc1cc2cc(C(=O)N3CCN(Cc4ccc5c(c4)OCO5)CC3)c(=O)oc2cc1OC	0	-13%[15.4 µM]	-10%	0.4%	8.9	-0.2
CCN(CCCNC(=O)c1cc2c(=O)[nH]c3ccccc3c2s1)c1ccccc1	2	x	x	-7.2%	x	1.3
COc1cc2c(cc1OC)C1C(C(=O)Nc3ccccc3N3CCN(C)CC3)c3ccccc3C(=O)N1CC2 (configuration not stated)	-6	1%	10%	-0.1%	-4.1	0.0
CC(OC(=O)CCN=C1NS(=O)(=O)c2ccccc21)C(=O)NC1CCCCC1C (configuration not stated)	0	-8%	6%	0.7%	x	-0.2
N#Cc1c(SCC(=O)Nc2cccc(F)c2)sc2c(O)cc(=O)[nH]c12	-9	-1%[15.4 µM]	0%	x	32[activator]	-0.1
COc1ccc(-c2c(C(F)(F)F)nn(C)c2NC(=O)c2cccnc2)cc1	-7	-7%[15.4 µM]	-13%	x	3.3	0.0
COc1ccc(OC)c(C(=O)CSc2nc3c(c(=O)n(C)c(=O)n3C)n2C(C)C)c1	-7	22%	0%	-0.4%	0.7	-0.6
Cc1cc(C)nc(Nc2ncc(O)n2-c2ccc(C)c(C)c2)n1	5	10%	6%	-2.8%	0.8	-0.1
CCn1c(SCCOc2ccccc2F)nc2ccccc21	-4	x	x	-1.9%	x	0.9
CCCN(CC(=O)Nc1ccccc1C)C(=O)C1CCN(C(=O)Nc2ccccc2)CC1	-13	-9%	-12%	0.9%	x	0.0
Cc1ccc(Cn2cnc3nc4c(cc3c2=O)CCCC4)cc1	10	x	x	0.6%	x	1.2
Cc1oc2ccc(O)c(CN3CCN(C)CC3)c2c1C(=O)Nc1ccc(C(C)C)cc1	1	x	x	38%	x	-0.6
CCN1CCc2c(sc(N)c2C(N)=O)C1	40	u	1%	14µM*	u	4.5

Next section:
Molecule	TRPML1 inh	gsp ag	gsp antag	ClpP mod	Menin-MLL FL inh	TRPML1 ag
COC(=O)C1=C(C)N(Cc2ccccc2)C(=NCc2ccco2)N[C@H]1c1cccc(F)c1	45	2%	3%	2.4%	x	0.4
CC1Sc2ccc(S(=O)(=O)N3CCC(C(N)=O)CC3)cc2NC1=O (configuration not stated)	-1	u	12%	0.5%	x	-1.0
COc1ccc(C(=O)Nc2cc(-c3nc4ccccc4s3)ccc2OC)cc1	-6	x	x	-4.5%	x	1.2
COc1cc(C(=O)NCc2nnc(SCC(=O)c3ccc(Cl)cc3)o2)cc(OC)c1OC	27	3%	-2%	-1.0%	x	1.9
Cc1ccc(C2=Nc3ccccc3N(CC(=O)Nc3ccccc3F)C(=O)C2)cc1C	-7	x	x	-2.6%	x	0.8
Cc1ccccc1/C=N/N=C1/NC(=O)CCS1	-4	0%[15.4 µM]	14%	x	0.4	0.9
Cc1ncc(CO)c(/C=N/NC(=O)c2cccc(S(=O)(=O)N3CCCC3)c2)c1O	-1	-8%[15.4 µM]	-12%	-1.6%	x	8.1

Results in ClpP mod, TRPML1 ag and Menin-MLL FL inh, for 2 of the compounds above:
SMILES,ClpP mod,TRPML1 ag,Menin-MLL FL inh
O=C(COC(=O)c1ccccn1)Nc1ccc2c(c1)OCO2,1.2%,0.8,2.1
COc1ccc(-n2ccnc(NCCc3ccc(S(N)(=O)=O)cc3)c2=O)cc1Cl,-12%,0.1,x
